# Screening results as filed in PubChem.
# TIM10 inh: growth inhibitors of isogenic TIM10 control yeast, primary screen, counter-screen for tim10-1 yeast inhibitor project, luminescence, uHTS | S. cerevisiae TIM10 strain growth, BacTiter-Glo luminescence, 24 h | inhibition, % at 10 µM | 1.4% of 330,000 active;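 active means inhibition of 40% or more at the single tested concentration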;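 further: wild-type TIM10 isogenic control strain grown at permissive 25 °C; 0% = DMSO yeast wells and 100% = minimal medium wells without yeast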
# APJ ag: agonists of human apelin receptor APJ, primary screen, CHO-K1 cells, PathHunter beta-arrestin, luminescence | P35414 | 0% DMSO wells, 100% apelin | activation, % at 20 µM | 0.11% of 330,000 active | AID 2520, 2010;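 active means activation more than six SD over the plate average, tested at 20 µM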;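 further: 0% = DMSO alone and 100% = apelin-13 at 10 nM; some results filed as inactive read as strong as hits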
# Target sequence (P35414 whole entry, looked up): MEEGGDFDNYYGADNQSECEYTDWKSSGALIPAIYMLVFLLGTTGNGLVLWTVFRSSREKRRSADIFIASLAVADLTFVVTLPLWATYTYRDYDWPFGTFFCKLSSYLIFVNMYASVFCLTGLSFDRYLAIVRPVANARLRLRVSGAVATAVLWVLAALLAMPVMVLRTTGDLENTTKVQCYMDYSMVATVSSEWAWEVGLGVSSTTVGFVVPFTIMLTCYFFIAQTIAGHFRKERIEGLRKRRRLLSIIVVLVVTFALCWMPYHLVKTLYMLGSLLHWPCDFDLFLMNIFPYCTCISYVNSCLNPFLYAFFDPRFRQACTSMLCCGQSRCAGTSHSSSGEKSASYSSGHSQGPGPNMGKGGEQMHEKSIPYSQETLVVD
#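 Assay system: CHO-K1 APJ beta-arrestin complementation cell line / Compound: single test compound dose, 20 µM final, 1% DMSO / Times: overnight seeding, 90 min compound at 25 °C, 1 h detection / Technique: beta-gal luminescence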
# UPR CHOP act: activators of apoptotic CHOP UPR arm, primary screen, cell-based, CHO-CHOP luciferase reporter, luminescence, uHTS; activation, % at 10 µM; UPR activation; percent of tunicamycin response over DMSO baseline; AID 449763, 2010; 0.34% of 330,000 active;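 active means at 10 µM dose, activation of 40% or more, normalized to positive control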;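 further: 100% = tunicamycin at 10 µg/mL and 0% = DMSO alone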
#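 Test system: CHO-CHOP cells, stable luciferase reporter of PERK-eIF2a-CHOP signalling | Quantity: 500 CHO-CHOP cells per well | Buffer or medium: F12 plus 10% serum | Compound dosing: 10 µM single point, 0.5% DMSO | Schedule: 6 h compound treatment, 37 °C | Signal: Luciferase luminescence | Control set: Tunicamycin high control, DMSO low control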
# tim10-1 inh: growth inhibitors of tim10-1 mutant yeast, primary screen, luminescence, uHTS; S. cerevisiae tim10-1 ts strain growth, BacTiter-Glo, 24 h; inhibition, % at 20 µM; 2.2% of 330,000 active; AID 463190, 2010;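 active means inhibition of at least 40%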;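 further: mutant grown at 25 °C; 0% = DMSO wells with yeast and 100% = wells holding no yeast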
# tim23-1 inh: growth inhibitors of tim23-1 mutant yeast, primary screen, luminescence, uHTS; S. cerevisiae tim23-1 growth, BacTiter-Glo luminescence, 24 h; inhibition, % at 20 µM; 1.3% of 330,000 active; AID 463212, 2010;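 active means growth inhibition of the mutant yeast at or above 50%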;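 further: temperature-sensitive mutant grown at 25 °C; plate controls were DMSO-treated mutant yeast for no effect and medium wells lacking yeast for full effect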
# XBP1 UPR activ: activators of adaptive XBP1 UPR arm, primary screen, cell-based, CHO-XBP1 luciferase reporter, luminescence, uHTS; activation, % at 20 µM; 0.33% of 330,000 active; IRE1-XBP1 UPR activation; percent of tunicamycin response, DMSO as zero;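 active means versus positive control, 20 µM dose yields 30% or more activation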;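 further: 100% = tunicamycin at 10 µg/mL and 0% = DMSO only wells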
#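 Material: IRE1-XBP1 luciferase reporter CHO line / Quantity: one thousand reporter cells per well / Buffer or medium: F12 with 10% serum / Compound: 20 µM single concentration, DMSO 1% / Times: 6 h treatment, 37 °C / Detection: Steady-Glo luciferase glow luminescence, 10 min after reagent addition / Benchmarks: tunicamycin high, DMSO low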
# NLRP3 yeast inh: NALP3 inflammasome inhibitors in reconstituted yeast, primary screen, luminescence, uHTS; Yeast reconstituted NLRP3/ASC/caspase-1, beta-gal luminescence, 24 h; inhibition, % at 10 µM; 0.39% of 330,000 active; AID 2825, 2010;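 active means inhibition of 50% or more; inactive means inhibition below 50%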;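 further: plate controls were induced DMSO wells for no effect and uninduced yeast grown without galactose for full effect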
# * hit, by the source's call; & = joins results of further samples.
Compound,TIM10 inh,tim10-1 inh,NLRP3 yeast inh,XBP1 UPR activ,APJ ag,UPR CHOP act,tim23-1 inh
COc1cc(C(=O)OCCCN2CCCN(CCCOC(=O)c3cc(OC)c(OC)c(OC)c3)CC2)cc(OC)c1OC,-6,4,18,-8,-4,-0.2,-1
COc1ccc(-c2csc3ncnc(N4CCN(S(=O)(=O)c5ccccc5C#N)CC4)c23)cc1,1,14,11,-4,4,-0.4,18
CC(C)Oc1ccc2c(=O)c(-c3ccccc3)coc2c1,-5,11,58*,-7,-3,2.5,26
CCCC(=O)Nc1ncnc2c1ncn2[C@@H]1O[C@@H]2COP(=O)(O)O[C@H]2[C@H]1OC(=O)CCC,-3,-7,13,-1,-5,-1.1,-6
CC(C)NCC(O)c1ccc(NS(C)(=O)=O)cc1 (stereo not drawn),-3,5,23,-6,-5,1.1,-1
CCC1(c2ccccc2)NC(=O)N(C)C1=O (stereo not drawn),12,-14,17,-5,4,-1.5,-2
CC(=O)CC(c1ccc([N+](=O)[O-])cc1)c1c(O)c2ccccc2oc1=O (stereo not drawn),15,10,8,-4,0,-2.8,-1
CC1(C)CC(N2CCN(C(c3ccccc3)c3ccccc3)CC2)=CC(=[N+]2CCCCC2)C1,-49,-70,38,21,-2,30,-24
COC(=O)c1c(NC(NC(=O)C(C)C)C(Cl)(Cl)Cl)sc2c1CCC2 (stereo not drawn),24,44*,0,0,0,-0.1,25
Cc1ccc(NC(=O)c2ccc3c(c2)OCCO3)cc1S(=O)(=O)Nc1cccc(Cl)c1,43*,25,7,2,1,7.4,35
CCN1CCC[C@H]1CNC(=O)c1c(OC)ccc(Br)c1OC,14,0,8,-8,2,-0.4,8
COc1ccc(C(=O)NCc2cccnc2)cc1C(=O)NCc1cccnc1,4,10,10,-6,9,1.2,-17
CN[C@@H]1CC[C@H](c2ccc(Cl)c(Cl)c2)c2ccccc21,8,38,37,3,-1,0.2,28
Nc1ccc(S(=O)(=O)Nc2ccccn2)cc1,0,8,20,-5,2,0.1,3
N[C@H]1CONC1=O,9,-3,2,-6,-3,-1.2,6
COc1cccc2c1C(=O)c1c(O)c3c(c(O)c1C2=O)C[C@@](O)(C(=O)CO)C[C@@H]3O[C@H]1C[C@H](N)[C@H](O)[C@H](C)O1,-6,11,65*,-5,10,-2.9,52*
Cc1cc(C(=O)NNCc2ccccc2)no1,1,-19,5,-3,-7,3.3,-6
Cc1ccc(NC(=O)c2ccc(CN3CCN(C)CC3)cc2)cc1Nc1nccc(-c2cccnc2)n1,3,-9,13,-2,-4,2.1,-12
OC(Cn1cncn1)(Cn1cncn1)c1ccc(F)cc1F,-72,-77,19,-3,4,0.1,-149
CC(C)n1c(/C=C/[C@H](O)C[C@H](O)CC(=O)O)c(-c2ccc(F)cc2)c2ccccc21,6,-2,20,-5,3,0.1,20
COCCN1CCN(C(=O)c2cc(COc3cc(C)ccc3C)on2)CC1,13,8,6,2,3,6.6,4
O=C(CCCCCCC(=O)Nc1ccccc1)NO,9,-15,12,20,-1,2.1,-2
CC1=NS(=O)(=O)c2cc(Cl)ccc2N1,5,1,17,-3,-3,0.4,1
Cc1ccc(/C(=C\CN2CCCC2)c2ccccn2)cc1,-17,-8,21,-6,0,-1.6,-44
Nc1ncn([C@@H]2O[C@H](CO)[C@@H](O)[C@H]2O)c(=O)n1,8,9,24,6,0,25,9
CCOc1ccccc1N(C(=O)c1snc(C(N)=O)c1N)C(C(=O)NCCC(C)C)c1ccco1 (stereo not drawn),21,26,13,0,-5,0.3,37
CC(C)(C)n1nc(Cc2cccc3ccccc23)c2c(N)ncnc21,22,28,44,1,10,1.6,62*
CN(C)CC[C@@H](c1ccc(Br)cc1)c1ccccn1,5,-7,22,-4,1,0.3,-5
N[C@@H]1CONC1=O,-3,-6,7,-5,1,2.7,-8
C[C@]12C=CC(=O)C=C1CC[C@@H]1[C@@H]2C(=O)C[C@@]2(C)[C@H]1CC[C@]2(O)C(=O)CO,-3&7,5&5,10&28,2&-6,3&-3,0.8&-3.2,12&-6
O=C1CCc2ccc(OCCCCN3CCN(c4cccc(Cl)c4Cl)CC3)cc2N1,-1,-73,15,-4,2,1.1,-88
CN/C(=C\[N+](=O)[O-])NCCSCc1ccc(CN(C)C)o1,-3,-39,22,-7,1,0.2,-32
CC12C=CC(=O)C=C1CCC1C2C(=O)C[C@@]2(C)C1CCC2(O)C(=O)CO (stereo partly drawn),8,-16,20,-3,-4,-1.2,-9
COc1ccc2[nH]cc(CCNC(C)=O)c2c1,11,16,24,-8,-2,-3.7,-2
COc1cc(NS(C)(=O)=O)ccc1Nc1c2ccccc2nc2ccccc12,-74,-42,28,2,10,-0.1,-2
CC(C)NC[C@H](O)COc1cccc2ccccc12,-5,-3,15,-3,0,2.7,-10
CCCCc1nc(Cl)c(CO)n1Cc1ccc(-c2ccccc2-c2nnn[nH]2)cc1,-2,-8,-9,-3,-3,-2.2,10
CC[C@H]1CN2CCc3cc(OC)c(OC)cc3[C@@H]2C[C@@H]1C[C@H]1NCCc2cc(OC)c(OC)cc21,0,-18,23,-10,-6,-6.2,-33
O=C(NC1CCCCC1)c1ccc2c(c1)OCO2,-11,-6,17,-1,0,7.3,5
CC[C@H]1CN2CCc3cc(OC)c(OC)cc3C2C[C@@H]1C[C@H]1NCCc2cc(OC)c(OC)cc21 (stereo partly drawn),-6,0,17,-10,-5,-6.6,4
CCN(CCCNC(=O)c1nn(C)c2c1CS(=O)(=O)c1ccccc1-2)Cc1ccccc1,-10,15,12,-4,-4,0.4,10
C=C(CC)C(=O)c1ccc(OCC(=O)O)c(Cl)c1Cl,54*,65*,12,-5,-2,7.0,68*
CC(=O)O[C@H]1C(=O)[C@]2(C)[C@H]([C@H](OC(=O)c3ccccc3)[C@]3(O)C[C@H](OC(=O)[C@H](O)[C@@H](NC(=O)c4ccccc4)c4ccccc4)C(C)=C1C3(C)C)[C@]1(OC(C)=O)CO[C@@H]1C[C@@H]2O,3,-5,9,-1,5,3.6,-6
O=c1cc(C(F)(F)F)nc(SCc2cccc3ccccc23)[nH]1,-3,40*,20,-4,-1,1.6,24
CC(=O)C1=C(c2ccccc2)NC(=O)NC1c1cccs1 (stereo not drawn),-6,2,10,2,-4,1.6,-7
CC(=O)c1c(C)[nH]c(C(=O)COC(=O)c2cccc(S(=O)(=O)N(C)c3ccccc3)c2)c1C,31,17,8,2,-9,7.2,10
Nc1ncnc2c1ncn2C1OC(CO)C(O)C1O (stereo not drawn),4,-27,8,-1,2,-1.2,18
CC(CC(=O)N1CCN(S(=O)(=O)c2ccc(Cl)cc2)CC1)n1cncn1 (stereo not drawn),2,-3,25,-5,-2,0.0,1
CCc1nnc(NC(=O)C2CCN(C(=O)c3ccco3)CC2)s1,6,-1,21,1,0,-0.3,-3
CN(C)CCC(c1ccc(Br)cc1)c1ccccn1 (stereo not drawn),2,-37,7,-6,-4,0.1,-6
CN1CCN(CCCN2c3ccccc3Sc3ccc(C(F)(F)F)cc32)CC1,27,42*,32,-1,0,-0.8,17
CC(C)NC[C@@H](O)COc1cccc2ccccc12,-4,-11,13,-2,3,0.1,-14

# As a working copy, some entries already given.
Compound,TIM10 inh,tim10-1 inh,NLRP3 yeast inh,XBP1 UPR activ,APJ ag,UPR CHOP act,tim23-1 inh
O=C1CCc2ccc(OCCCCN3CCN(c4cccc(Cl)c4Cl)CC3)cc2N1,-1,-73,15,-4,2,1.1,-88
CN/C(=C\[N+](=O)[O-])NCCSCc1ccc(CN(C)C)o1,-3,-39,22,-7,1,0.2,-32
CC12C=CC(=O)C=C1CCC1C2C(=O)C[C@@]2(C)C1CCC2(O)C(=O)CO (stereo partly drawn),8,-16,20,-3,-4,-1.2,-9
COc1ccc2[nH]cc(CCNC(C)=O)c2c1,11,16,24,-8,-2,-3.7,-2
COc1cc(NS(C)(=O)=O)ccc1Nc1c2ccccc2nc2ccccc12,-74,-42,28,2,10,-0.1,-2
CC(C)NC[C@H](O)COc1cccc2ccccc12,-5,-3,15,-3,0,2.7,-10
CCCCc1nc(Cl)c(CO)n1Cc1ccc(-c2ccccc2-c2nnn[nH]2)cc1,-2,-8,-9,-3,-3,-2.2,10
CC[C@H]1CN2CCc3cc(OC)c(OC)cc3[C@@H]2C[C@@H]1C[C@H]1NCCc2cc(OC)c(OC)cc21,0,-18,23,-10,-6,-6.2,-33
O=C(NC1CCCCC1)c1ccc2c(c1)OCO2,-11,-6,17,-1,0,7.3,5
CC[C@H]1CN2CCc3cc(OC)c(OC)cc3C2C[C@@H]1C[C@H]1NCCc2cc(OC)c(OC)cc21 (stereo partly drawn),-6,0,17,-10,-5,-6.6,4
CCN(CCCNC(=O)c1nn(C)c2c1CS(=O)(=O)c1ccccc1-2)Cc1ccccc1,-10,15,12,-4,-4,0.4,10
C=C(CC)C(=O)c1ccc(OCC(=O)O)c(Cl)c1Cl,54*,65*,12,-5,-2,7.0,68*
CC(=O)O[C@H]1C(=O)[C@]2(C)[C@H]([C@H](OC(=O)c3ccccc3)[C@]3(O)C[C@H](OC(=O)[C@H](O)[C@@H](NC(=O)c4ccccc4)c4ccccc4)C(C)=C1C3(C)C)[C@]1(OC(C)=O)CO[C@@H]1C[C@@H]2O,3,-5,9,-1,5,3.6,-6
O=c1cc(C(F)(F)F)nc(SCc2cccc3ccccc23)[nH]1,-3,40*,20,-4,-1,1.6,24
CC(=O)C1=C(c2ccccc2)NC(=O)NC1c1cccs1 (stereo not drawn),-6,2,10,2,-4,1.6,-7
CC(=O)c1c(C)[nH]c(C(=O)COC(=O)c2cccc(S(=O)(=O)N(C)c3ccccc3)c2)c1C,31,17,8,2,-9,7.2,10
Nc1ncnc2c1ncn2C1OC(CO)C(O)C1O (stereo not drawn),4,-27,8,-1,2,-1.2,18
CC(CC(=O)N1CCN(S(=O)(=O)c2ccc(Cl)cc2)CC1)n1cncn1 (stereo not drawn),2,-3,25,-5,-2,0.0,1
CCc1nnc(NC(=O)C2CCN(C(=O)c3ccco3)CC2)s1,6,-1,21,1,0,-0.3,-3

# A portion of the library; the hit share may differ from the screen's.
